PABP polyA inh: PABP poly(A) RNA binding inhibitors, primary screen, biochemical, fluorescence polarization, uHTS; AID 2014, 2009; Polyadenylate-binding protein 1 (Homo sapiens), P11940; actives 1% (n = 290,000); inhibition, % at 35 µM;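 active = 50% or more with normal probe brightness, or confirmed in later tests; inconclusive = above 50% with abnormal brightness, or retests that disagree; inactive = below 50% or failed in later tests; about a fifth of its hits are not listed in these tables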;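 note: calls also rest on retests at 20 µM and on dose response follow-up; controls were probe without protein and protein plus probe with vehicle; some compounds called inactive have numbers as strong as hits; many hits fall short of the cut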
Target sequence (P11940 whole entry, looked up): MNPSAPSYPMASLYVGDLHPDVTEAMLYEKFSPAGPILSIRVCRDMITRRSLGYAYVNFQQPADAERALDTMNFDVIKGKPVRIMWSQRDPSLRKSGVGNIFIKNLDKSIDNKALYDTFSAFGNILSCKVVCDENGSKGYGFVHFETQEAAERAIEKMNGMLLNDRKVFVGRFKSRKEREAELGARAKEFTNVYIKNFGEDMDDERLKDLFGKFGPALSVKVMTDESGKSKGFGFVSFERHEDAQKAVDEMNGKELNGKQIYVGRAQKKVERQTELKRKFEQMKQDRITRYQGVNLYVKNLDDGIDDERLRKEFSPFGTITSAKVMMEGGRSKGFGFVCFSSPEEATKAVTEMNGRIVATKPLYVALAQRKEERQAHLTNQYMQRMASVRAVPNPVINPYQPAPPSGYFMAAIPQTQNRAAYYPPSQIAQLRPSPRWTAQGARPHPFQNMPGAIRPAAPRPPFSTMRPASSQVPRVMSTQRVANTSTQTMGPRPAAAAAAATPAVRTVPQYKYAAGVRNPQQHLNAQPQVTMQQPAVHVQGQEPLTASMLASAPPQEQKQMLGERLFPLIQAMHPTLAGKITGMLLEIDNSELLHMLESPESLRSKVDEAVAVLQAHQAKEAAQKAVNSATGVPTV
CSC inhib: cancer stem cell viability inhibitors, primary screen, luminescence | AID 2717, 2010 | actives 1.1% (n = 300,000) | inhibition, % at 7.5 µM | cancer stem cell-like cells viability;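 active = mean at 75% or more and at least half the replicates too; inconclusive = mean and replicates disagree; tested in HMLE shEcad cells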;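 note: 0% = median of negative and 100% = median of positive control wells; the first replicate is given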
UUG fidelity: modulators of yeast start codon fidelity, primary screen, whole organism, S. cerevisiae, single point, plate reader | S. cerevisiae UUG-firefly luciferase reporter, luminescence/redox ratio | activity score, % at 18.7 µM | actives 0.13% (n = 350,000);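 active = replicate mean at a twofold rise or more, about +100% in these data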;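 note: firefly luciferase made from a UUG start codon reports start codon fidelity; reporter light over untreated wells divided by growth signal over untreated wells; some hits fall short of that in this replicate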
Env fusion inh: inhibitors of HIV-1 Env-driven cell-cell fusion, primary screen, HeLa-JRFL effector, CEM21 target cells, luciferase; inhibition, % at 12.3 µM; actives 1.1% (n = 360,000);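 active = mean replicate inhibition score of at least 50 and every replicate individually at or above 50; inconclusive = only one of the two criteria met; inactive = mean below 50 and not all replicates reaching 50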;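 note: 0% = plate neutral controls and 100% = maraviroc near 300 nM; one replicate is shown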
Rce1 inhib: yeast Rce1p protease inhibitors, primary screen, biochemical, fluorescence, cell-free homogeneous. AID 2563, 2010. actives 0.27% (n = 290,000). calls only. yeast membranes, quenched prenylated peptide cleavage fluorescence. CAAX prenyl protease 2 (Saccharomyces cerevisiae (strain ATCC 204508 / S288c)), Q03530;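 active = fall in fluorescence gain of 50% or more versus controls, with final raw signal at or below 3038400; inconclusive = same 50% fall but final raw signal above 3038400; inactive = fall in fluorescence gain under 50%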;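 note: plate controls were neutral control wells for no effect and wells lacking membranes for full effect; tested at 10 µM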
eIF4H FP inh: human eIF4H binding inhibitors, primary screen, translation initiation inhibitor project, biochemical, uHTS, fluorescence polarization; eIF4H fluorescence polarization binding assay; Eukaryotic translation initiation factor 4H (Homo sapiens), Q15056; AID 2012, 2009; actives 0.94% (n = 290,000); inhibition, % at 35 µM;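 active = 50% or more with normal probe brightness, or confirmed in later tests; inconclusive = above 50% with abnormal brightness, or retests that disagree; inactive = below 50% or failed in later tests; about a fifth of its hits are not listed in these tables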;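 note: calls also rest on retests at 20 µM and on dose response follow-up; 0% = protein and probe with vehicle and 100% = probe without protein; strong numbers were not always called active; many hits fall short of the cut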
MT1-MMP act inh: blockers of MT1-MMP proenzyme processing, primary screen, HT1080 RFP-PRO-GFP cells, GFP/RFP fluorescence; Matrix metalloproteinase-14 (Homo sapiens), P50281; GFP/RFP ratio fluorescence, overnight; percent of plate control window, DMSO zero; GFP/RFP ratio change, % at 20 µM; actives 0.061% (n = 360,000); AID 651647, 2012;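 active = GFP/RFP ratio change of at least 30% with cell ATP level not reduced by more than half and red fluorescence within 50% of control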; note: strong numbers were not always called active
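Assay system: HT1080 RFP-PRO-GFP cells. Benchmarks: DMSO vehicle wells and RFP-L50D-GFP reporter cell wells. Times: overnight cell settling, then overnight compound exposure, 37 °C, 5% CO2. Compound: 20 µM single dose, 1% DMSO. Read-out basis: GFP/RFP fluorescence ratio.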
eIF4H FP inh retest: second read-out of eIF4H FP inh, no call of its own (marks repeat the call); inhibition, %; compound at 20 µM; confirmation average;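 mean of two retest wells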
PABP polyA inh retest: further read-out of PABP polyA inh, marked with its call; inhibition, %; compound at 20 µM; confirmation repeats;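 mean of two retest wells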
MT1-MMP act inh RFP: second read-out of MT1-MMP act inh, no call of its own (marks repeat the call); RFP signal change, %; measured here: RFP expression control read;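 0 = vehicle wells; hits needed this value within 50% of zero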
The depositor's hits bear a star; i = inactive; ? = inconclusive; · = not tested or not shown. A portion of the library. The share of hits here may be higher or lower than overall.

SMILES	PABP polyA inh	CSC inhib	UUG fidelity	Env fusion inh	Rce1 inhib	eIF4H FP inh	MT1-MMP act inh	MT1-MMP act inh RFP	others
CN1CCN(S(=O)(=O)c2cccs2)CC1	-9	-14	·	7	i	2	1	0
Cc1cc(C)nc(SCCS(=O)(=O)Cc2ccc(Cl)cc2)n1	-5	-8	-15	·	i	9	-6	-4
COc1ccc(C2C(C#N)=C(N)N3C(=C2C#N)Sc2ccccc23)cc1 (stereo not drawn)	44	-9	·	·	·	12	·	·
CCCC(=O)N1CCCC1(C)C(=O)Nc1cc(C)ccc1C (stereo not drawn)	·	·	-11	12	·	·	-1	3
c1ccc2c(c1)[nH]c1c3ccccc3sc21	1	7	-15	-2	i	-10	-7	-11
Cc1ccc(CN2C(=O)CCC2C(=O)NC2CCCC2)cc1 (stereo not drawn)	-5	9	-4	·	i	-4	2	4
CCc1ccc(NC(=O)C2=CC=CN3CCS(=O)(=O)N=C23)cc1	·	-7	-5	·	·	·	2	3
O=C1CC(N2CCN(c3ccc(Cl)cc3)CC2)C(=O)N1c1ccccc1 (stereo not drawn)	-5	-8	-27	-4	i	4	4	-1
Cc1ccc(CNC(=O)C2CCCN(S(=O)(=O)c3c(C)noc3C)C2)cc1 (stereo not drawn)	2	-8	-1	-12	i	-14	4	1
Cc1ccc(N(C(=O)c2csnn2)C(C(=O)NC2CCCCC2)c2cccnc2)cc1 (stereo not drawn)	-17	-9	-6	-4	i	65	0	3	eIF4H FP inh retest=-4;PABP polyA inh retest=4
CCCCS(=O)(=O)C1CCS(=O)(=O)C1 (stereo not drawn)	0	-10	-7	·	i	-12	3	1
Cc1ccccc1C(C(=O)NC1CCCC1)N(C(=O)Cc1cccs1)c1ccc2c(c1)OCCO2 (stereo not drawn)	1	17	3	20	i	8	-28	-16
COCCN1CCn2c(nc3cc(NC(=O)c4ccc(OC)cc4)ccc32)C1	-5	-8	-16	·	i	-14	0	5
NC(=O)CNC(=O)C1CCCc2c1[nH]c1ccc(Cl)cc21 (stereo not drawn)	11	-11	-1	-26	i	-7	2	3
C#CCOCCOCCOCCNc1nc(N2CCN(C(=O)[C@H](CCC(=O)O)n3cc(C(N)Cc4ccc(O)cc4)nn3)CC2)nc(N2CCN(C(=O)[C@H](CCC(=O)O)n3cc(C(N)Cc4ccc(O)cc4)nn3)CC2)n1 (stereo partly drawn)	2	-7	·	-10	i	2	·	·
CCN(CC)CCCN=Cc1c(O)n(-c2ccc(C)cc2)c(=O)c2ccccc12	12	4	-8	-13	i	3	-1	-1
O=C(C1CC(=O)N(c2ccc(F)cc2)C1)N1CCOCC1 (stereo not drawn)	9	-8	-23	-7	i	-7	1	7
CCOC(=O)c1cc2ccc3ccccc3c2oc1=O	6	-10	0	14	i	3	5	-2
COc1ccccc1CNC(=O)CN1C(=O)NC2(CCCCCC2)C1=O	·	-6	·	-1	·	·	0	5
COc1cc(/C=N/NC(=O)c2ccc(NS(=O)(=O)c3cccs3)cc2)cc(OC)c1O	·	11	-12	·	·	·	6	-2
CCOC(=O)c1c(C)[nH]c(C)c1S(=O)(=O)NCCc1sccc1C	2	-1	-9	-16	i	-12	2	-3
CC(C)C[C@@H](CNCC(=O)[C@H](CC(C)C)NC(=O)c1[nH]cnc1C(=O)N[C@@H](C)CN)NC(=O)c1nc[nH]c1C(=O)N[C@@H](CC(=O)O)C(=O)O	·	·	7	11	·	·	9	4
Cc1ccc(S(=O)(=O)N2CCC3(CC2)OCCO3)c(C)c1	-2	1	-11	·	i	-13	2	0
CCCN(CCC)CCNC(=O)Cn1cnc2sc(C)c(S(=O)(=O)N3CCOCC3)c2c1=O	·	4	-14	-19	i	·	7	6
CCCS(=O)(=O)NC(=O)C1(C)CCCN(C(=O)c2ccccc2F)C1 (stereo not drawn)	·	·	-6	0	·	·	-1	7

Overlap with the part before: 2 entries, followed by the next part.
SMILES	PABP polyA inh	CSC inhib	UUG fidelity	Env fusion inh	Rce1 inhib	eIF4H FP inh	MT1-MMP act inh	MT1-MMP act inh RFP	others
CCCN(CCC)CCNC(=O)Cn1cnc2sc(C)c(S(=O)(=O)N3CCOCC3)c2c1=O	·	4	-14	-19	i	·	7	6
CCCS(=O)(=O)NC(=O)C1(C)CCCN(C(=O)c2ccccc2F)C1 (stereo not drawn)	·	·	-6	0	·	·	-1	7
CCCCn1c(C(C)O)nc2ccccc21 (stereo not drawn)	-2	12	-7	·	i	-3	-2	1
O=C(C1COc2ccccc2O1)N1CCN(c2ccc(C(F)(F)F)cn2)CC1 (stereo not drawn)	·	-1	9	·	·	·	-1	2
O=C(NC(=S)NC1CCCCCC1)c1cncc(Br)c1	0	-4	·	·	i	5	1	2
COc1ccc(NC(=O)C[C@H]2C(=O)N(CCc3ccccc3)C[C@@H]2Cc2ccccc2)cc1	·	·	-19	-21	·	·	2	0
COc1ccc(NC(=O)c2sc(=S)[nH]c2N)cc1	-2	-3	-10	·	i	2	5	2
O=S(=O)(/C=C/c1ccccc1)Oc1ccccc1	11	-7	7	·	i	-10	-6	-8
COc1ccc(C(=O)CN2CCN(c3cc(C)nc4ccccc34)CC2)cc1	49	-2	5	3	i	19	-5	1
CCOC(=O)C1=C(CS(=O)(=O)c2ccc(F)c(C)c2)NC(=O)NC1c1ccc(O)c(O)c1 (stereo not drawn)	6	-14	-8	8	i	16	2	3
COC(=O)C(NC(=O)c1ccccc1)=C1CCCCC1	-12	-9	-14	·	i	-4	-4	-1
COc1ccc(OC)c(NC(=O)CN2C(=O)c3ccccc3S2(=O)=O)c1	-11	-8	10	-26	i	8	1	1
O=C(Cn1cncn1)N/N=C/c1cc([N+](=O)[O-])ccc1O	6	8	-16	15	i	17	1	1
CCOc1nc(-c2ccccc2)ccc1-c1noc(-c2cccnc2)n1	·	-8	-17	16	i	·	6	1
COc1ccc(C(=O)Nc2cc(-c3ccccc3)nn2-c2ccccc2F)cc1	·	4	-6	25	·	·	-5	-5
Cc1cc(C)c(SSc2nnnn2-c2ccccc2)c(C)c1	·	·	-30	1	·	·	-2	6
NC(=O)C1CCN(C(=O)c2ccc(Cl)c(NC(=O)c3cccs3)c2)CC1	·	·	-10	-1	·	·	-2	1
Cc1ccc(OCc2nnn(CC(=O)NS(=O)(=O)c3c(C)noc3C)c2-c2ccccc2)cc1	·	·	7	2	·	·	-2	6
COc1cccc(NS(=O)(=O)c2ccc(-n3cccn3)cc2)c1	-1	-10	-8	13	i	6	-1	-12
CC1CCN(CCNC(=O)C2CCN(S(=O)(=O)c3cccc4nsnc34)CC2)CC1	8	-8	-16	3	i	-3	-3	1
COc1ccc(OC)c(C2CC(=O)OC3=C2C(=O)CC(C)(C)C3)c1 (stereo not drawn)	8	1	-15	-16	i	-6	-5	-3
CCCCc1ccc(NC(=O)N[C@H](C(=O)O)C(C)CC)cc1 (stereo partly drawn)	-4	1	-5	·	i	-1	5	5
Cc1cc(C(=O)NCC(c2ccco2)N(C)C)no1 (stereo not drawn)	4	-12	-15	-25	i	11	-4	5
CN(C(=O)C1CCC(=O)N(CCCN2CCCC2=O)C1)C(C1CC1)C1CC1 (stereo not drawn)	2	-7	7	4	i	-6	0	3
CCCCN(C)CCC(=O)Nc1ccc2c(c1)CCC2	-6	8	·	17	i	-12	-3	-2
CC(C)CC(=O)N1CCN(C(=O)c2cccc(F)c2)CC1	-2	-7	-12	·	i	0	0	2
CCOC1=C/C(=C/c2c(N)n3nc(CC(=O)N4CCCCC4)sc3nc2=O)C=CC1=O	3	-1	1	-3	i	20	-20	34

More results follow.
SMILES	PABP polyA inh	CSC inhib	UUG fidelity	Env fusion inh	Rce1 inhib	eIF4H FP inh	MT1-MMP act inh	MT1-MMP act inh RFP	others
CC(=O)Nc1cc(S(=O)(=O)Nc2ccccc2)c(C)cc1C	3	-5	-14	·	i	8	1	2
CC(=O)c1c(N2CCCC2)[nH]c(-c2ccccc2)nc1=S	6	-12	·	·	i	-5	-5	-6
O=C(Nc1ccccc1C(=O)NCc1cccnc1)c1ccco1	-4	-3	-8	18	i	0	-1	4
O=C(CSc1nnc(-c2ccccc2)n1Cc1ccccc1)N1CCOCC1	-9	-5	-11	-83	i	0	5	10
COc1ccc(CNS(=O)(=O)NCc2ccccc2F)cc1	-16	-7	·	-3	i	-8	4	1
CC(=O)N(NC(=O)c1ccccc1Cl)C1CC(=O)N(c2ccc(C)cc2)C1=O (stereo not drawn)	1	·	-11	5	i	-3	3	0
O=C(COC(=O)COc1ccccc1)Nc1ccc(OC(F)(F)F)cc1	3	-3	5	-23	i	5	4	7
CCCn1c(N)c(N2CCCCC2)c(=O)n(CC(=O)Nc2ccccc2C)c1=O	3	-4	·	·	i	13	6	6
CC(=O)NNC(=O)c1sc(=S)n(C)c1C	2	3	·	-8	i	-1	0	5
CC(C)(C)c1ccc(-n2ncc3c2CCCC3NC(=O)CCN2CCCCC2=O)cc1 (stereo not drawn)	-4	17	-5	46	·	17	-3	-25
O=C(NCc1ccccc1)C(c1cccnc1)N(C(=O)c1csnn1)c1ccccc1 (stereo not drawn)	2	3	-12	-5	i	6	0	0
NC(=O)CSc1n[nH]c(=O)n1CCc1ccccc1	-8	3	-23	-7	i	-3	-1	2
CC(C)CCNC(=S)Nc1ccccn1	-9	-1	-31	-8	i	-9	-8	0
C[C@H](CO)N1C[C@H](C)[C@@H](CN(C)Cc2ccncc2)Oc2c(NC(=O)CCC(F)(F)F)cccc2C1=O	·	-3	-17	-23	·	·	-7	3
Cc1ccnc(NC(=O)C2CC(=O)N(c3ccc4c(c3)OCCO4)C2)c1 (stereo not drawn)	-5	·	-50	-37	i	-9	-4	-1
O=C(COc1coc(CN2CCN(c3cccc(Cl)c3)CC2)cc1=O)NC1CCCC1	·	-8	-12	·	i	·	6	-7
COc1ccc(OC)c(/C=N/NC(=O)c2ccc(=O)[nH]n2)c1	2	7	·	-11	i	1	-2	2
CCCCCCC(=O)Nc1ccc(Cl)cn1	-4	-6	·	·	i	2	1	2
CCOC(=O)C1CCN(c2cc3c(cc2NC(=O)c2ccccc2F)n(C)c(=O)n3C)CC1	-6	-8	-38	-20	i	-9	4	4
Cc1cc(C)cc(N(CC(=O)NCc2ccco2)S(=O)(=O)c2ccccc2)c1	9	-7	-1	14	i	-2	0	0
C=CCNC(=O)C1CCN(c2ccc(S(=O)(=O)N3CCOCC3)cc2Cl)CC1	2	-6	·	1	i	-4	-3	-3
COC(=O)c1ccccc1NC(=S)NC(=O)COc1ccccc1Cl	1	-1	-15	-21	i	-14	-1	0
COC(=O)c1ccc2c(=O)n(CC3CCCO3)c(SCC(=O)NCCc3ccc(S(N)(=O)=O)cc3)nc2c1 (stereo not drawn)	10	-1	·	36	i	8	-2	-2
O=C(NCCC(NS(=O)(=O)OCC(Cl)(Cl)Cl)c1ccccc1)C(F)(F)F (stereo not drawn)	10	9	9	?	i	3	3	6

High-throughput results (PubChem BioAssay)
